# NPYLR7 agonist = activates Aedes aegypti NPYLR7 receptor; HEK293T NPYLR7/Galpha15, GCaMP6s calcium fluorescence; activation, % at 10 µM; hit rate 0.15% among 270,000; in the data active = activation above about 40%;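 note: 0% = vehicle and 100% = reference agonist at the receptor; some compounds past the cut are filed as inactive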
# NPYLR7 agonist max-min = further read-out of NPYLR7 agonist, marked with its call; activation, %; measured here: Max-Min RFU normalised activation; some inactives read as strong as hits;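 span of the calcium signal over five minutes; 0% = vehicle and 100% = native peptide agonist; compound fluorescence can raise it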
# * marks the source's active call; other numbers are inactive results.
SMILES,NPYLR7 agonist,NPYLR7 agonist max-min
CC(C)(C)c1cc(/C=C(\C#N)C(N)=S)cc(C(C)(C)C)c1O,3,-8
CN=C1CC(C)(C)CC(=O)C1=C(O)CCC(=O)NC,-1,-2
COc1ccc(CCC(=O)Nc2c(C)nc3ccccn3c2=O)cc1,4,2
Fc1ccccc1-c1nnc(SCc2ccc3c(c2)OCO3)n1C1CC1,1,4
COc1cc(C)ccc1OCc1nc(C(=O)NCCN2CCOCC2)cs1,6,12
CC(C)Nc1ncccc1C(=O)Nc1ccc(C(C)(C)C)cc1,-2,-5
Cc1nn(-c2ccccc2)c2c1C(c1ccc(Cl)cc1Cl)C(C#N)C(=N)O2 (stereo not given),-3,-6
Cc1ccccc1OCC1=NN2C(=N)/C(=C/c3ccc(Br)o3)C(=O)N=C2S1,-1,-2
CCCSC1=C(C#N)C2(CCCCC2)C(C#N)C(N)=N1 (stereo not given),2,-1
OCc1ccccc1-c1ccc(CN2CCCCC2)cc1,11,9
Cc1cc(C)c(S(=O)(=O)N2CCC3(CC2)SCCN3C(=O)c2ccc(C(F)(F)F)cc2)c(C)c1,28,37
CCCCS(=O)(=O)N1CCN(C2c3ccccc3CCc3ccccc32)CC1,-8,-3
CCCCC(=O)N(C)c1c(CC)nc2c(OCC(=O)N(C)C)cccn12,7,7
C=c1oc(C)cc1=C1NN=C(CNC(C)c2ccccc2Cl)O1 (stereo not given),10,3
CN1C(=O)/C(=C2\SC(=S)N(Cc3ccco3)C2=O)c2ccccc21,0,-3
CCCCOc1ccc(-c2nc(C=Nc3ccc(F)c(Cl)c3)c(O)o2)cc1,-3,-12
COC(=O)c1cc(C=C2N=C(c3cccc(C)c3)OC2=O)oc1C,6,4
CCCC(C)(C)C(=O)N1CCC1(C)C(=O)NS(=O)(=O)c1cccc(OC(F)F)c1 (stereo not given),13,13
Cc1ccsc1C(=O)N1CCC1(C)C(=O)NCc1ccco1 (stereo not given),1,-1
Cc1nc(SCC(=O)c2c(N)n(C3CC3)c(=O)[nH]c2=O)c2c(C)c(C)sc2n1,1,0
CCOC(=O)C(C#N)=CNC(C)=O,2,2
O=C(CSc1nnc(CNC(=O)c2ccco2)o1)NC1CCCC1,13,6
CCOCCCNc1c(CC)c(C)c(C#N)c2nc3ccccc3n12,2,0
O=c1c2nn(Cc3ccccc3F)c(=O)n2ccn1-c1ccc(Br)cc1,6,4
COc1ccccc1CC(=O)N1CCC(n2cnc3cc(C(F)(F)F)ccc32)CC1,3,4
Cc1ccc(CNC(=O)c2cc3ccccc3oc2=O)cc1,-1,-4
Cc1cc(C)c(NC(=O)CN(C)C(=O)c2ccc(S(=O)(=O)N3CCCC(C)C3)cc2)c(C)c1 (stereo not given),-4,-7
COCCN(Cc1nc(C(=O)NCc2ccco2)cs1)C(=O)Nc1cccc(Cl)c1,-4,-3
Cc1sc2nc(CSc3nnc(C4CC4)n3C)[nH]c(=O)c2c1C,-2,7
CN(C)c1ccc(/C=N\NC(=O)c2cc3cc(Br)ccc3oc2=O)cc1,-9,-11
CCC(CO)N=Cc1ccc(O)cc1 (stereo not given),-11,-18
c1ccc2c3c([nH]c2c1)C(C1CCCCC1)N(Cc1ccn[nH]1)CC3 (stereo not given),7,-4
O=C1Nc2ccccc2C(O)(C(=O)N2CCOCC2)N1c1cccc(C(F)(F)F)c1 (stereo not given),-7,-10
COCCC(=O)Nc1cc(C(=O)N2CCOc3ccccc3C2)cc2nc(-c3ccccc3)n(C)c12,15,4
c1cc(-c2ccc3c(c2)OCO3)c2cc[nH]c2c1,-4,-5
CC(C)C(NC(=O)/C=C/c1cn(C)c(=O)n(C)c1=O)c1cccs1 (stereo not given),3,3
CC(C)C(=O)Nc1ccc(S(=O)(=O)NCC(c2ccsc2)N(C)C)cc1 (stereo not given),-5,-6
Cc1nn(-c2ccccc2)c2c1C(c1ccccc1[N+](=O)[O-])C(C#N)C(=N)O2 (stereo not given),10,1
CCCOc1ccc(/C=C/C(=O)NCCn2cnnc2C(C)C)cc1,0,24
CCn1c(C)cc(C(=O)COC(=O)c2cc(C)n(C3CC3)c2C)c1C,2,11

# Reformatted: two of the compounds above.
structure	NPYLR7 agonist	NPYLR7 agonist max-min
c1cc(-c2ccc3c(c2)OCO3)c2cc[nH]c2c1	-4	-5
CC(C)C(=O)Nc1ccc(S(=O)(=O)NCC(c2ccsc2)N(C)C)cc1 (stereo not given)	-5	-6

# Additional entries.
SMILES,NPYLR7 agonist,NPYLR7 agonist max-min
COc1ccc(C2(C(=O)NC(C)c3cnn(-c4ccccn4)c3C)CCCC2)cc1 (stereo not given),9,4
COc1ccc(-n2c(SCc3ccccc3F)nnc2-c2ccccc2OC)cc1,1,-5
CCc1ccc(-c2c(-c3ccccc3)ncn2CCN(C)S(C)(=O)=O)o1,7,3
C=CCNC(=O)C(NC(=O)c1ccc2c(c1)OCO2)C1CCN(S(=O)(=O)c2ccc(OC)cc2)CC1 (stereo not given),1,8
Cc1ccccc1N1CCN(C2CCCN(C(=O)CCC(F)(F)F)C2)CC1 (stereo not given),-6,-7
CN(Cc1ccc2c(c1)OCO2)C(=O)NC1CCC(C)(C)c2ccccc21 (stereo not given),3,1
O=S(=O)(CCCc1nc2ccccc2o1)c1ncn[nH]1,3,0
COc1ccc(NC(=O)c2cc(=O)c(OC)c[nH]2)cc1OC,-3,-8
O=C(CSc1ncn[nH]1)N1CCC2(CCNCC2)CC1,6,5
Cc1ccc(C(=O)NCC(=O)Nc2ccc(Cl)cc2)s1,1,0
CCSCC(=O)N1CCC(n2cnc3ccccc32)CC1,-2,4
CCOC(=O)c1cc(-c2ccc(N3CCN(C(=O)CCC(=O)OC)CC3)cc2)n(-c2ccccc2C)n1,5,2
COc1nc2c(cc1C(=O)N1Cc3cnn(CCO)c3C1)CCC2,4,2
Cc1cccc(N2CCN(Cn3[nH]c(/C=C/c4ccccc4)nc3=S)CC2)c1,3,3
CN1CCNC(=O)C12CCN(C(=O)c1ccccc1C(F)(F)F)CC2,3,0
Nc1cc(-c2ccc(Cl)c(Cl)c2)nn1-c1ccc(C(=O)Nc2ccccc2)cc1,-1,-6
COc1cccc(OCCCOc2ccc(/C=C3\C(=N)N4N=CSC4=NC3=O)cc2)c1,0,1
Cc1ccc(C)c(-c2[nH]ncc2CN(C)Cc2cnn(C)c2C)c1,4,2
Cc1ccc(NC2CCCN(C(=O)c3cn(C)c4ccccc4c3=O)C2)cc1C (stereo not given),5,0
CCN1C(=O)N(CC)C2C1NC(=O)N2C (stereo not given),-1,-2

# Look-ups from above:
# Value of `COc1ccc(-n2c(SCc3ccccc3F)nnc2-c2ccccc2OC)cc1` under NPYLR7 agonist: 1
# Value of `CCN1C(=O)N(CC)C2C1NC(=O)N2C` (stereo not given) under NPYLR7 agonist: -1
# Value of `Cc1sc2nc(CSc3nnc(C4CC4)n3C)[nH]c(=O)c2c1C` under NPYLR7 agonist max-min: 7

# Next section.
SMILES,NPYLR7 agonist,NPYLR7 agonist max-min
CCCCOc1ccc(Br)cc1C(=O)NC,3,5
O=C(CN1CCC(C(=O)Nc2ccccc2O)CC1)Nc1ccccc1Br,-1,-2
Cc1ccc(-c2cc3c(=O)n(Cc4nc(-c5ccccc5)oc4C)ccn3n2)cc1C,-1,-4
O=C1C2C3C=CC(C3)C2C(=O)N1c1ccc(Cl)cc1 (stereo not given),5,3
O=C(c1cccs1)N1CCN(C(=O)c2ccccc2F)CC1,1,-1
CCc1nnc(-c2cc3ccccc3n2CC(=O)NCc2ccc(F)cc2)o1,3,1
Cc1cc(NC(=O)CC(C)c2ccccc2)n(C)n1 (stereo not given),0,2
O=C(c1ccc2c(c1)no[n+]2[O-])N1CCO[C@@H]2CCCC[C@H]21,5,2
O=C(CCNCC1=Cc2ccccc2OC1)NC1CCCCC1,4,3
COc1cc(OC)cc(N2C(=S)N[C@H]3[C@@H](O)[C@H](O)C[C@@H](C(=O)Nc4ccccc4)[C@H]32)c1,15,14
CCNC(=O)N(Cc1cccc(OS(=O)(=O)CC)c1)C(C)CC (stereo not given),7,17
COc1cccc(N=C2SC(C(=O)Nc3cccc(Cl)c3)CC(=O)N2C)c1 (stereo not given),2,0
Cc1nnc(SCCNC(=O)C2CCCN2C(=O)C2CCCCC2)s1 (stereo not given),10,0
COC(=O)c1ccc(CN2C(=O)C3(CCC3)ON=C2c2cccc(Cl)c2)o1,-2,-4
Cc1c2c(n(Cc3ccc(F)cc3F)c1C(=O)NCc1cccc(C(F)(F)F)c1)CCCC2,28,37
N#Cc1cc(C(=O)c2cc(Br)ccc2O)cn(C2CCCC2)c1=O,15,5
COc1ccc(CCC(=O)NC2C3CC4CC(C3)CC2C4)cc1 (stereo not given),11,8
Cc1cc(C)n2nc(C(=O)N3CCCC(Nc4ccc(C(C)C)cc4)C3)cc2n1 (stereo not given),-5,-8
Cc1cccc(NC(=O)C2CC(=O)N(Cc3ccccc3)C(=Nc3ccc(F)cc3)S2)c1 (stereo not given),-7,-12
Cc1cc(C)n(CC2(CNC(=O)c3ccc(=O)n(C)c3)CC2)n1,12,10
CC1=C(C(=O)OC2CCCC2C)C(c2ccc(N(C)C)cc2)NC(=O)N1 (stereo not given),3,4
Nc1c(C(=O)Nc2ccccc2C(F)(F)F)sc2[nH]c(=O)c(C(=O)O)cc12,-2,-8
CN1CCCC2(CCN(C(=O)OCC(C)(C)C)C2)C1=O (stereo not given),12,7
Cc1ccc(-c2csc(=O)n2CC(=O)Nc2ccc(C)cc2C)cc1,3,2
CC(=O)c1c(C)cc(C)c(CSc2ccccn2)c1C,7,8
CC(C)Oc1ccc(C(O)=C2C(=O)C(=O)N(CCN(C)C)C2c2ccccc2F)cc1 (stereo not given),3,2
CS(=O)(=O)N1CCCc2cc(C(=O)Nc3ccc(C(N)=O)cc3)ccc21,5,8
O=C(CSc1nc2c(c(=O)n1Cc1ccccc1)SCC2)NCC1CCCO1 (stereo not given),4,-5
CCc1ccc(-c2cncc(CN3CCOCC3)c2)cc1,6,3
COc1ccc(Br)cc1CNc1ccc2[nH]c(=O)[nH]c2c1,-1,-2
CN(C(=O)c1cnsn1)c1ccccc1-c1ccccc1,1,1
Cc1c(C(=O)NCCSc2ccccn2)cnn1-c1ccccn1,5,2
O=C(CN1CN(c2ccccc2)C2(CCN(C(=O)CCC3CCCC3)CC2)C1=O)NCc1ccc2c(c1)OCO2,16,12
CCN1CCC(N2CCOc3c(O)cc(-c4cccc(Cl)c4)cc3C2)CC1,11,-5
CC(=O)N1CCC(NC(=O)CNc2c(C)cccc2C(C)C)CC1,8,4
CN(Cc1ccccc1OC(F)(F)F)C(=O)NCCc1ccccc1,-2,0
CCOC(=O)c1nn(-c2ccc(Cl)cc2)c(=O)c2c(NC(=O)Cc3ccccc3)scc12,6,3
COc1ccc(C2CC(=O)C3C(=Nc4ccccc4NC3c3ccsc3)C2)cc1 (stereo not given),-6,-11
C=CCN(Cc1nc2scc(-c3ccc(C)cc3C)c2c(=O)[nH]1)CC(O)CN1CCOCC1 (stereo not given),-3,1
CCN(CC)C1CCN(C(=O)NCCc2cccc(O)c2)C1 (stereo not given),7,6
Cc1ccn2c(NC(=O)Cc3ccccc3)c(-c3cccc(Cl)c3)nc2c1,-10,-6
CC(C)c1cnc2c(c1SCc1cccc(C(F)(F)F)c1)c(=O)n(C)c(=O)n2C,9,15
Oc1cc(-c2cccc3c2Oc2ccccc2S3)cc2c1OCCNC2,4,2
CN(CC1CCN(CCc2cccc(C(F)(F)F)c2)CC1)C(=O)c1ccsc1,0,-4
Cc1ccc(C)c(CNc2ccccc2C(=O)NCCC(N)=O)c1,-7,-8
O=c1ccc(-c2ccccc2)nn1CCNS(=O)(=O)c1ccc(Cl)s1,-1,-1
CNC(=O)CCOc1ccc(NC(C)c2cc(F)ccc2F)cc1 (stereo not given),17,14
COCC1(C(=O)NCCN2CCCOC2=O)CCC1,-6,-7
Fc1ccccc1OC1CN(c2nc(-c3ccncc3)nc3c2CNC3)C1,0,1
CCOC(=O)c1ccc(-n2ccc3c(cnc4ncnn43)c2=O)cc1,1,7
CC(C)(C)CC(=O)NCc1cccnc1-n1cccn1,9,4
Clc1ccc(-c2nc(N3CCC(Cc4ccccc4)CC3)c3ccccc3n2)cc1,-1,0
CSc1nc2ccccc2[nH]1,8,7
COc1ccc(-c2nc(CN3[C@@H]4CC[C@H]3CC(O)C4)c(C)o2)cc1OC (stereo not given in full),28,20
COCCCNc1nccc2[nH]c(-c3cccc(C)c3)nc12,-5,-10
CCNC(=O)c1cc(CN(C)Cc2ccccc2)on1,24,11
Cc1ccc(N2CC(C(=O)NC3CCCC3)CC2=O)cc1 (stereo not given),-7,1
Cc1nsc(NC(=O)N2CCC(C(O)c3ccccn3)CC2)n1 (stereo not given),23,15
O=C1c2ccccc2C(=O)N1CCc1c[nH]c2ccc(OC(=O)C34CC5CC(CC(C5)C3)C4)cc12,-2,-6
c1ccc(-c2nc3c(c(N4CCN(Cc5cnc(N6CCCC6)s5)CC4)n2)CCC3)cc1,2,-2
O=C(NCc1cn2ccsc2n1)c1ccccc1C1CCNC1 (stereo not given),26,9
CC(=O)NCC1CN(c2ccc(Cl)c(Cl)c2)C(=O)O1 (stereo not given),5,6

# 3 of the compounds above, with two lines to a compound:
# Values run as follows: NPYLR7 agonist, NPYLR7 agonist max-min
- O=C1c2ccccc2C(=O)N1CCc1c[nH]c2ccc(OC(=O)C34CC5CC(CC(C5)C3)C4)cc12
    -2, -6
- c1ccc(-c2nc3c(c(N4CCN(Cc5cnc(N6CCCC6)s5)CC4)n2)CCC3)cc1
    2, -2
- O=C(NCc1cn2ccsc2n1)c1ccccc1C1CCNC1 (stereo not given)
    26, 9

# Fetched one by one from above, 7 records:
SMILES,NPYLR7 agonist,NPYLR7 agonist max-min
Cc1nsc(NC(=O)N2CCC(C(O)c3ccccn3)CC2)n1 (stereo not given),23,15
Cc1ccc(N2CC(C(=O)NC3CCCC3)CC2=O)cc1 (stereo not given),-7,1
O=C1c2ccccc2C(=O)N1CCc1c[nH]c2ccc(OC(=O)C34CC5CC(CC(C5)C3)C4)cc12,-2,-6
CC(=O)NCC1CN(c2ccc(Cl)c(Cl)c2)C(=O)O1 (stereo not given),5,6
O=C(NCc1cn2ccsc2n1)c1ccccc1C1CCNC1 (stereo not given),26,9
CCOC(=O)c1ccc(-n2ccc3c(cnc4ncnn43)c2=O)cc1,1,7
c1ccc(-c2nc3c(c(N4CCN(Cc5cnc(N6CCCC6)s5)CC4)n2)CCC3)cc1,2,-2

# Only part of the results is shown; rates above refer to the full screens.
